Screens deposited in PubChem BioAssay by several laboratories.
Ecoli growth = inhibitors of Escherichia coli growth; OD600, 23 h; stronger effect = lower value; OD600 absorbance (test concentration not listed); 0.21% of 330,000 active; AID 1053175;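 active = OD600 absorbance below the run mean of sample wells minus 3.6 SD, in any replicate, cut at about 0.56 in these data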;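 note: stock transfer was 300 nL into about 60 µL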
MLL AF4-AF9 inh = MLL-AF4/AF9 protein interaction inhibition | inhibition, % at 10 µM | 0.47% of 350,000 active | P42568 | AlphaScreen, biotin-AF4 peptide binding to FLAG-AF9 | AID 651704;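 active = every replicate reaching a set inhibition limit, whatever the replicate mean, cut at about 25% in these data; inconclusive = mean inhibition reaches that limit but some replicates miss it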;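 note: 0% = plate neutral control median and 100% = total signal loss; the record names both 10 and 1 µM as test concentration; the first replicate is given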
Target sequence (P42568 whole entry, looked up): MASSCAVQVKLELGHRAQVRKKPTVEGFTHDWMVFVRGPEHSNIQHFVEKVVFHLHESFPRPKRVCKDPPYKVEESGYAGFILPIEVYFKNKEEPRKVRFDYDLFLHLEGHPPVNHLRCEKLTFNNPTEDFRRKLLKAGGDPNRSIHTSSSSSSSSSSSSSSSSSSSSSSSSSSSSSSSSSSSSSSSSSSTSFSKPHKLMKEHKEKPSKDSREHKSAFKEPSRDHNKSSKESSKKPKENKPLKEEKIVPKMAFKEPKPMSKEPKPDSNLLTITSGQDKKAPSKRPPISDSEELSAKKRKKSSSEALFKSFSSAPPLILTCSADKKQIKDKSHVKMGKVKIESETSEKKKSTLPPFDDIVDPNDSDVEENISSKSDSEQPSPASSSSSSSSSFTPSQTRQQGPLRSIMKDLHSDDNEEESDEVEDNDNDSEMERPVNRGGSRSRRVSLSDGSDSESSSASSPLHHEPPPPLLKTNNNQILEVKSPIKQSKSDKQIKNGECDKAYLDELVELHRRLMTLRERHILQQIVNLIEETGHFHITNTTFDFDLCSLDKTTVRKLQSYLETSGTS
FGF22 binding = shifts melting point of recombinant human FGF22; Q9HCT0; recombinant FGF22 thermal shift, SYPRO orange fluorescence; percent of sucrose octasulfate shift, DMSO zero; calls only at 9.99 µM; 1.5% of 340,000 active;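 active = melting point raised past a set limit in the mean and every replicate; inconclusive = no clear call; three in four hits are not shown here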
Target sequence (Q9HCT0 whole entry, looked up): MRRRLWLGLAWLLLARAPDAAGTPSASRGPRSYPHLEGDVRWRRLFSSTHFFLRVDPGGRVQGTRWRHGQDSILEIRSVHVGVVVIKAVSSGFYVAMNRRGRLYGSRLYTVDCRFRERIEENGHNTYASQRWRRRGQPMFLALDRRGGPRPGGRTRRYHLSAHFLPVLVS
rRNA inh HTS = selective bacterial rRNA inhibition in E. coli; E. coli WT GFP vs humanized-ribosome RFP mutants, fluorescence, 24 h; stronger effect = lower value; DMSO median 0, no signal -100; GFP signal change (wild-type ribosome), % (concentration not given with the values); 1.6% of 350,000 active; AID 720706;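 active = significant combined selectivity score with lowered wild-type GFP, culture density cut under 30%, mutant RFP and density less affected; inactive = any of these conditions unmet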; note: one replicate is shown; some compounds called inactive have numbers as strong as hits
HNF4A DNA FP = change in binding of human HNF4 alpha to DNA | P41235 | HNF4a-FITC DNA binding, fluorescence polarization, 1 h | activity change, % at 10 µM | 0.3% of 360,000 active | AID 1224865; in the data active = activity change above about 30%, passing the limit was not always enough;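 note: controls were the assay level and a saturating level of protein; the project sought stronger binding though the title names inhibitors; some compounds called inactive have numbers as strong as hits; positive values seem to mean higher polarization but the record does not say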
Vif TR-FRET = HIV-1 Vif–A3G interaction blockers – biochemical, TR-FRET, GST-Vif 1-94, biotin-A3G peptide, dose response retest, primary screen (AID 1117319); TR-FRET GST-Vif / biotin-A3G peptide binding; higher % means a stronger effect; test concentration not given here; strong numbers were not always called active; inhibition, %, or IC50 in µM where a hit was titrated; 0.57% of 260,000 active;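 active = above the screen mean plus three standard deviations and confirmed in dose response; inconclusive = results disagree or hit not tested in dose response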;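 note: Vif residues 1-94 fused to GST binding biotinylated APOBEC3G peptide 110-148; 0% = full assay without inhibitor and 100% = GST in place of GST-Vif; retest series ran down from 100 µM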
ALR H2O2 inh = inhibitors of human sulfhydryl oxidase ALR; P55789; purified ALR, DTT oxidation, H2O2 HRP-luminol luminescence; inhibition, % (test concentration not listed); 3.8% of 290,000 active;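 active = mean and each replicate at 75% or more; inconclusive = only one of the two met; inactive = neither met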;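 note: stock transfer was 7.5 nL into about 7.5 µL; 0% = neutral wells and 100% = wells with inactivated enzyme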
Target sequence (P55789 whole entry, looked up): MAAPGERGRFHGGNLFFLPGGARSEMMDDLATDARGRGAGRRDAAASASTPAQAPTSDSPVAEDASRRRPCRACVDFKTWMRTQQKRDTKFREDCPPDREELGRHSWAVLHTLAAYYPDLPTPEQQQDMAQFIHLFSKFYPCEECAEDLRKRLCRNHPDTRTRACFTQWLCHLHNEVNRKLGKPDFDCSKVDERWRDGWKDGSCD
rRNA inh HTS OD600 = further read-out of rRNA inh HTS, marked with its call; OD600 change, %; measured here: OD600 growth;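 optical density of the mix in the first replicate; 0 = DMSO median and -100 = no signal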
rRNA inh HTS RFP = further read-out of rRNA inh HTS, marked with its call; RFP signal change, %; measured here: RFP humanized mutant strains;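 first replicate; 0 = DMSO median and -100 = no signal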
Numbers without * were called inactive; i = inactive; u = inconclusive; x = no result given; + = active, no number.

Every second line gives: Ecoli growth, ALR H2O2 inh, Vif TR-FRET, FGF22 binding, HNF4A DNA FP, rRNA inh HTS, rRNA inh HTS OD600, rRNA inh HTS RFP, MLL AF4-AF9 inh
Cc1cccc(C(=O)O[C@H]2[C@H](C)NS(=O)(=O)[C@H]3CC4C=C[C@]23O4)c1
→ x, -0.7, x, i, -1.9, 6.3, -9.3, -8.8, 0.3
CCOc1ccc2[nH]cc(S(=O)(=O)c3ccc(F)cc3)c(=O)c2c1
→ 0.727, x, -30.8%, i, -3.4, 3.2, 6.4, 0.6, 0.5
COc1cccc(OC)c1C(=O)Nc1ccncc1
→ 0.712, -3.2, x, i, -0.8, 7.8, 2.4, 0.4, x
CCC(=O)c1ccc(OCC(=O)OCC(=O)c2cc(C)n(C)c2C)cc1
→ 0.71, -1.7, x, i, -1.4, -8.7, -7.9, 0.8, 0.0
Cc1ccc(N2C(=N)SCC2=O)cc1Cl
→ 0.683, -6.2, x, x, -0.1, x, x, x, x
O=C(NC1CCC1)[C@@H]1[C@@H](CO)[C@@H]2Cn3c(ccc(-c4cncnc4)c3=O)[C@@H]2N1C(=O)NC1CCCC1
→ x, x, x, i, x, 3.6, 6.9, -2.4, -0.4
Cc1ccc(Cl)cc1N1CCN(C(=O)C2CCC(=O)N2C(C)C)CC1 (configuration not stated)
→ 0.717, -0.6, x, i, -5.4, 6.5, 6.9, 0.2, -2.6
CN(C)CC(=O)N1[C@@H](CO)[C@@H](c2ccccc2)C12CN(CCC(F)(F)F)C2
→ x, x, x, i, x, 5.4, 17.8, -0.5, -0.8
Cc1ccc(S(=O)(=O)CCC(=O)OCc2ccccc2)cc1
→ 0.696, 2.4, 6.5%, i, -1.3, 0.8, 1.2, 2.6, 1.3
Cc1cc(C(=O)Nc2cccc3c2O[C@@H](CN(C)Cc2ccc(C(=O)O)cc2)[C@@H](C)CN([C@H](C)CO)C3=O)n(C)n1
→ x, x, x, i, x, 3.8, 5.7, -1.5, -6.3
Nc1nnc(SCC(=O)c2cccc([N+](=O)[O-])c2)s1
→ x, -8.8, 12.5%, i, -1.1, 11.7, 4.0, -0.9, -0.2
Cc1cc2c(=O)cc(-c3ccccc3)oc2c(C(=O)O)c1C
→ x, x, x, i, -1.4, 7.3, 14.8, 5.7, 1.7
COc1ccc(S(=O)(=O)N(C)C[C@H]2OCCCC[C@H](C)Oc3ccc(N(C)C)cc3C(=O)N([C@@H](C)CO)C[C@@H]2C)cc1
→ x, x, x, i, x, -3.8, -1.3, 0.7, 11.7
CCC1(C(=O)c2ccccc2)C2c3cc(Br)ccc3OC(=O)C21C(=O)N1CCOCC1 (configuration not stated)
→ 0.708, -21.3, -1.2%, x, -6.0, x, x, x, x
Nn1c(SCc2ccccc2F)nnc1-c1ccncc1
→ 0.66, -0.8, -6.0%, i, 0.9, 1.1, 7.1, -2.9, 3.3
COC(=O)CCSCC(=O)N1N=C(c2ccc(Br)cc2)CC1c1cccc(OC)c1OC (configuration not stated)
→ 0.728, -2.5, -8.7%, i, -1.3, 17.6, 22.5, 6.3, 4.4
CCOC(=O)c1sc(=S)n(-c2ccc(Cl)cc2)c1SC
→ 0.636, -9.8, 3.0%, x, -0.2, x, x, x, x
O=C(CC12CC3CC(CC(C3)C1)C2)N1CCN(S(=O)(=O)c2cccs2)CC1
→ 0.691, -5.1, u, x, -0.1, x, x, x, x
COc1ccc(NC(=O)Nc2cccc3c2O[C@H](CN(C)S(=O)(=O)c2ccc(C)cc2)[C@@H](C)CN([C@H](C)CO)C3=O)cc1
→ x, x, x, i, x, -1.6, -9.3, 2.0, 4.2
O=C(CSc1ccc(Cl)cc1)Nc1ccccc1N1CCN(C(=O)c2ccccc2)CC1
→ 0.743, -2.4, 8.8%, x, 3.1, x, x, x, x
C[C@H](CO)N1C[C@H](C)[C@@H](CN(C)C)Oc2cc(C#Cc3ccncc3)ccc2S1(=O)=O
→ x, x, x, i, x, -2.0, -3.6, -0.5, -1.3
O=C(COC(=O)c1ccncc1)NC(=O)C1CCCCC1
→ 0.674, x, 0.6%, x, -1.2, x, x, x, x
C[C@H]1CCCCO[C@H](CN(C)C(=O)Nc2cccc3ccccc23)[C@@H](C)CN([C@@H](C)CO)C(=O)c2cc(NC(=O)Nc3ccc4c(c3)OCO4)ccc2O1
→ x, x, x, +, x, 0.1, -0.1, 1.3, 0.5
COc1ccc(S(=O)(=O)N2CCOC23CCN(C(=O)c2ccc(Cl)cc2Cl)CC3)cc1
→ 0.695, -2.5, 6.3%, i, 6.7, -2.1, -31.4, 9.4, 3.0
COc1ccc(NC(=O)NC2(C(=O)N3CCN(C)CC3)CCCCC2)cc1
→ 0.714, x, x, i, -0.9, 3.7, 10.6, -1.5, -2.6
O=C(Nc1nccs1)C1CCN(S(=O)(=O)c2ccc3c(c2)OCCCO3)CC1
→ 0.681, -2.8, 0.7%, i, 3.9, 6.6, 6.1, 0.0, -1.8
CSc1ccc(CN2CCN(C(C)C)C(CCO)C2)cc1 (configuration not stated)
→ 0.68, 4.3, 9.3%, i, 0.3, 3.7, 5.3, -3.0, -1.7
Cc1ccc(-n2nnnc2SCC(=O)NC2CC2)cc1C
→ 0.72, 0.9, x, i, -1.9, 1.4, 1.1, 2.2, 0.0
Cc1c(C(=O)OCC(=O)N2CCCC2)cccc1[N+](=O)[O-]
→ 0.702, x, x, i, 0.4, 3.7, 6.6, -0.5, -1.4
COc1ccc(NC(=O)Nc2ccc3c(c2)C(=O)N([C@@H](C)CO)C[C@H](C)[C@H](CN(C)S(=O)(=O)c2ccccc2)O3)cc1
→ x, x, x, i, x, -2.2, -24.9, -0.8, 4.3
CC(Sc1nnc(NC(=O)c2cc3ccccc3oc2=O)s1)c1ccccc1 (configuration not stated)
→ 0.791, -8.1, 5.0%, i, -0.1, 0.4, -3.5, -4.8, 0.5
Cc1cc(C(=O)CN2CCCC(C)C2)c(C)n1-c1ccc(F)cc1 (configuration not stated)
→ 0.668, 64.4, x, x, 4.2, x, x, x, x
O=C(Nc1cccc([N+](=O)[O-])c1)ONC1=NCCCCC1
→ 0.643, -1.0, 11.2%, i, 1.0, -13.1, -2.9, -10.6, 4.3
O=C1C(=O)N(c2ccccn2)C(c2cccc([N+](=O)[O-])c2)/C1=C(/O)c1ccc(Br)cc1 (configuration not stated)
→ 0.747, 63.5, x, i, 4.1, -3.3, 0.8, 1.2, 2.2
COc1ccc2oc(=O)c(C(=O)NCc3ccc(F)cc3)cc2c1
→ 0.649, 0.4, -3.8%, i, -1.8, 0.2, 14.6, 0.3, -2.2
Cc1ccc(S(=O)(=O)NC(C)C(=O)NC2CCCCCC2)cc1 (configuration not stated)
→ 0.729, -4.0, -1.2%, x, -1.0, x, x, x, x
Cc1c(NCc2cc(Cl)cc(Cl)c2O)c(=O)n(-c2ccccc2)n1C
→ 0.72, 1.7, 5.6%, x, 1.0, x, x, x, x
O=C1N[C@@H](Cc2ccccc2)C(=O)N2[C@@H]3N(S(=O)(=O)c4ccccc4)c4ccccc4[C@]3(Br)C[C@@H]12
→ x, 3.6, x, i, 3.3, -24.6, -48.3, -9.5, 2.9
COc1ccc(C2(O)CCN(CC(=O)Nc3nccs3)CC2)c(OC)c1
→ 0.662, 3.5, 18.1%, i, 0.3, 9.4, 6.2, 0.2, -27.2
O=C(Nc1nnc(S(=O)(=O)N2CCOCC2)s1)c1cccc(Br)c1
→ x, 15.6, x, i, 5.4, -6.8, -14.7, -5.7, 3.2

Single values from above.
O=C(Nc1cccc([N+](=O)[O-])c1)ONC1=NCCCCC1 in rRNA inh HTS = -13.1
O=C1N[C@@H](Cc2ccccc2)C(=O)N2[C@@H]3N(S(=O)(=O)c4ccccc4)c4ccccc4[C@]3(Br)C[C@@H]12 in rRNA inh HTS OD600 = -48.3

Going on with the list:
Every second line gives: Ecoli growth, ALR H2O2 inh, Vif TR-FRET, FGF22 binding, HNF4A DNA FP, rRNA inh HTS, rRNA inh HTS OD600, rRNA inh HTS RFP, MLL AF4-AF9 inh
Cn1c(SCC(=O)Nc2ccccc2F)nc2c(c1=O)SCC2
→ 0.719, 87.8*, 5.5%, i, -1.3, -15.0, -11.8, 1.8, 2.7
Cc1cc2ncc(C(=O)Nc3ccsc3C(=O)O)c(C)n2n1
→ 0.722, -4.2, x, x, -0.1, 13.1, 10.1, 1.7, -0.7
C=CCn1c(C(C)C)nc2ccccc21
→ 0.682, -4.1, 7.8%, i, 2.6, 10.1, -10.4, -0.2, -1.4
CCCC(=O)N1CC2(C1)CN(C(=O)C1CC1)[C@H](CO)c1[nH]c3cc(OC)ccc3c12
→ x, x, x, i, x, 0.5, -5.9, 3.3, -3.7
CC(C)CC#Cc1ccc2c(c1)O[C@@H](CN(C)S(=O)(=O)c1ccc(F)cc1)[C@H](C)CN([C@@H](C)CO)S2(=O)=O
→ x, x, x, i, x, 2.0, 0.8, -2.2, 1.9
COC(=O)c1ccc2nc(-c3ccc(OC)c(OC)c3)c(Cc3ccccc3C(F)(F)F)n2c1
→ x, x, x, i, x, -0.8, 2.2, 0.3, -0.8
Cc1cc(NC(=O)Nc2cc(F)ccc2C)n(C)n1
→ 0.697, -0.2, -0.3%, x, -3.9, x, x, x, x
Cc1cccc(-n2ncc3c(NC(C)C)ncnc32)c1
→ 0.694, 65.5, 11.8%, i, 6.0, -2.0, 2.8, 0.2, -50.5
COc1ccc(C2SCC(=O)N2c2c(C)n(C)n(-c3ccccc3)c2=O)cc1OC (configuration not stated)
→ 0.691, -4.4, u, x, 0.4, x, x, x, x
COc1ccc(S(=O)(=O)NCC2CCCN(Cc3cn(C)nc3C)C2)cc1 (configuration not stated)
→ 0.706, -5.2, x, i, 0.6, 0.5, -0.4, 6.0, -1.0
O=C(NC(=S)NC1CCSC1=O)c1cccc([N+](=O)[O-])c1 (configuration not stated)
→ 0.71, 51.9, -2.4%, i, -3.3, 8.7, 8.8, -1.2, 0.8
Cc1cccc(NC(=O)C2CCN(S(=O)(=O)c3ccc4c(c3)NC(=O)CO4)CC2)c1C
→ 0.676, -7.5, x, i, -1.7, -3.3, -3.9, -0.2, -0.5
O=C(O)C1CCN(C(=O)COc2ccc3c4c(c(=O)oc3c2)CCC4)CC1
→ 0.706, -22.3, 26.1%, x, 0.8, x, x, x, 0.1
Cn1c(Cl)c(/C=N/OC(=O)c2cccc(Cl)c2)c2ccccc21
→ x, -0.5, 22.2%, x, -0.9, x, x, x, x
CC(C)c1ccc(OCc2ccc(C(=O)O)o2)cc1
→ 0.689, 14.4, 12.7%, i, -6.8, -1.0, -5.4, 0.7, -2.7
CCOC(=O)c1c(NC(=O)CSc2nnnn2C)sc(C)c1C
→ 0.696, 4.1, 27.4%, x, 0.2, x, x, x, x

Only part of the results is shown. The share of hits here may be higher or lower than overall.
